VACV Venus inh – inhibitors of vaccinia virus (Venus reporter). Vaccinia virus Venus reporter expression, fluorescence. Potency, µM (highest dose often 36.5 µM), without a hit: at the highest dose activity change, negative = inhibition, hits mostly inhibitors. 0.46% of 330,000 active. AID 720580; active means well fitted inhibition curve with a large enough effect; inconclusive means small, poorly fitted or top-dose-only effect; inactive means no such curve, though single readings can be large or run the other way; tested in A549 cells; note: nearly all actives have a fitted effect of over 30% in size; inactives centre near -10
VACV mCherry inh – vaccinia inhibition (mCherry reporter). Vaccinia virus mCherry reporter infection, fluorescence; about a quarter of the inactives have no number. Potency, µM (titrated, usually from 36.5 µM), for inactives: at the highest dose activity change, negative = inhibition, hits mostly inhibitors. 0.63% of 310,000 active. AID 720579; active = well fitted inhibition curve with a large enough effect; inconclusive = small, poorly fitted or top-dose-only effect; inactive = no such curve, though single readings can be large or run the other way; tested in A549 cells; note: nearly all actives have a fitted effect of over 35% in size; inactives centre near -10
* marks the source's active call; other numbers are inactive results; i = inactive; ? = inconclusive; / = no result given; & = joins results of further samples. % is set by controls: 0 for no effect and ±100 for the full control effect; potency is the fitted concentration of half-maximal effect.

Each structure is followed by: VACV Venus inh | VACV mCherry inh
Cc1ccc(NC(=O)Nc2ccc3oc(C)nc3c2)cc1
→ -24% | -1%
CC(NC(=O)C1CCN(S(=O)(=O)c2ccc3c(c2)oc(=O)n3C)CC1)c1ccccc1 (stereo not given)
→ -4% | -7%
CCc1cccc(N(C(=O)c2csnn2)C(C(=O)NC(C)(C)C)c2ccccn2)c1 (stereo not given)
→ -7% | -8%
Cc1ccc(C(=O)N/C(=C\c2cn(S(=O)(=O)N(C)C)c3ccccc23)C(=O)NCCCn2ccnc2)cc1
→ -4% | -3%
Cc1occc1C(=O)Nc1nccs1
→ -16% | -13%
CCNc1ccc(/C=C2\C=Cc3ccccc32)cc1
→ -5% | -8%
CCOC(=O)C1=C(C)OC(N)=C(C#N)C1c1cccs1 (stereo not given)
→ -1% | -9%
O=C(Nc1nnc(-c2ccncc2)s1)C1CCCO1 (stereo not given)
→ -5% | -16%
CCOC(=O)Cc1csc(NC(=O)c2c(O)c3c(n(CC(C)C)c2=O)CCCC3)n1
→ 4% | -11%
COc1ccc(OC)c(NC(=O)Cn2c(CCC(=O)O)ccc2-c2ccccc2)c1
→ 0%&0% | -7%&-4%
COc1cc(C=CC(=O)c2ccccc2)cc(OC)c1OC
→ -6% | 5%
CCOC(=O)C1CCN(S(=O)(=O)c2ccc(C)c(C(=O)NC3CCCCC3)c2)CC1
→ -10% | -1%
O=C(Nc1cccn(Cc2c(Cl)cccc2Cl)c1=O)C1CC1
→ -3% | i
CCOC(=O)N1CCN(CC(O)COCc2ccc(OC)c(OC)c2)CC1 (stereo not given)
→ -3% | -7%
Cn1cc(C(=O)NCc2ccc(Cl)cc2)c(=O)c2cc(S(=O)(=O)N3CCOCC3)ccc21
→ -5% | i
c1coc(-c2nc3nc4ccccc4nc3n2-c2ccc3c(c2)OCCO3)c1
→ 4% | -4%
O=C(NC(c1ccc(Cl)cc1)c1cnccn1)C1CCN(CCCc2ccccc2)CC1 (stereo not given)
→ -5% | 15%
O=C(O)CCc1cccnc1
→ -15%&-5% | -14%
Cc1cc(C(=O)CSc2nnc(-c3ccco3)o2)c(C)n1Cc1ccco1
→ 3% | -11%
CNC(=O)C(=O)NCC1OCCCN1S(=O)(=O)c1ccc2c(c1)OCCO2 (stereo not given)
→ -7% | -12%
CC1=NN(c2ccc(F)cc2)C(=O)C1C(c1cccc(O)c1)c1c(C)[nH]n(-c2ccc(F)cc2)c1=O (stereo not given)
→ -16% | i
COCCC1CCCCN1Cc1nc(N2CCCC2)c2cc(OC)c(OC)cc2n1 (stereo not given)
→ -14% | i
CN(NS(=O)(=O)c1ccc([N+](=O)[O-])cc1)c1ccccc1
→ -5% | -3%
Clc1ccccc1-c1nc(/C=N/N2CCOCC2)c2ccccn12
→ -8% | -7%
O=C(CCNS(=O)(=O)c1ccc(Br)cc1)N1CCCCCCC1
→ -21% | -3%
Cc1ccccc1OCCNC(=O)/C=C/c1ccc([N+](=O)[O-])cc1
→ -15% | -3%
Cc1cc(OCC(=O)Nc2ccc(C(=O)OC3CCCCC3)cc2)ccc1Cl
→ -18% | -13%
CN(C)C=Nc1ncc2c3ccccc3n(CCN(C)C)c2c1C#N
→ -11% | /
CCc1cc2ccc(OC)cc2nc1SCC(=O)NNC(C)=O
→ -9% | -16%
CCn1c(CN2CCC(C)CC2)nc2cc(NC(=O)c3ccccc3[N+](=O)[O-])ccc21
→ -13% | -18%
CCOC(=O)c1nc(-c2ccccc2)oc1N1CCOCC1
→ -5% | i
COC(=O)c1ccc(NC(=O)CSC2=NCCN2)cc1
→ -24% | -12%
CC(C(=O)N1CCc2ccccc21)N1CCN(S(=O)(=O)c2cccs2)CC1 (stereo not given)
→ -22% | i
CCCCc1ccc(NC(=S)N2CCC(O)CC2)cc1
→ 2% | 0%
Cc1ccc(-n2nnc3c(SCC(=O)NCC4CCCO4)ncnc32)cc1 (stereo not given)
→ 1% | /
c1ccc2c(-c3cc(NCc4ccncc4)n4nccc4n3)cccc2c1
→ 6% | -1%
CCCCOc1ccc(C(=O)NNC(=O)c2cnccn2)cc1OC
→ ? | ?
C=CC[C@@H](CC(=O)NCCO)C(=O)NCCOC(=O)[C@@H](CC=C)Cc1ccc(F)cc1
→ 0% | i
COc1ccccc1CC(=O)NN1C(=O)NC2(CCC(C)CC2)C1=O (stereo not given)
→ -25% | -10%
CCOC(=O)C1CCCN(c2cc(C)nc3cc(-c4ccc(Cl)cc4)nn23)C1 (stereo not given)
→ -22% | -13%
CC(=C/C(=O)O)/C(=C\c1ccc(Br)o1)C(=O)O
→ -13% | -2%
O=C(COc1ccccc1Cl)NC(=S)Nc1ccc(CN2CCOCC2)cc1
→ 17% | i
CCOC(=O)c1c(NC(=O)COC(=O)c2cnccn2)sc(C)c1C
→ -28% | ?
COc1ccccc1NC(=O)c1sc2nc(N3CCOCC3)c3c(c2c1N)CC(C)(C)OC3
→ 5% | 2%
CC(C)(C)NC(=O)C(c1cccc2ccccc12)n1c(=O)c(-c2ccco2)nc2ccccc21 (stereo not given)
→ -20% | -28%
Cc1c(CN2CCC(CO)(Cc3cccc(C(F)(F)F)c3)CC2)c2ccccc2n1C
→ ? | ?
Cc1cc(C)c2c(=O)cc(CSCC(=O)Nc3nnc(C)s3)[nH]c2c1
→ -5% | -1%
CCCN1C=CC(=CC=C(C#N)C#N)C=C1
→ 4% | ?
CC1Sc2ccc(C(=O)Nc3ccccc3OC(F)F)cc2NC1=O (stereo not given)
→ -27% | -7%
O=C(CN(Cc1ccccc1Cl)C(=O)CNS(=O)(=O)c1ccccc1)NCC1CCCO1 (stereo not given)
→ -7% | -10%
Cc1[nH]c2ccccc2c1/C=C/c1nc2ccccc2c(=O)n1-c1cccc([N+](=O)[O-])c1
→ -13% | -27%
CCn1cc(/C=C(\NC(=O)c2ccc(OC)c(OC)c2)C(=O)NCCCn2ccnc2)c2ccccc21
→ -4% | 0%
CCCCn1c(N)c(N(CCOC)C(=O)C2CCCN(C(=O)c3ccc(Cl)cc3)C2)c(=O)[nH]c1=O (stereo not given)
→ -9% | i
CCOC(=O)CSc1nnc(Cc2cc(=O)[nH]c(=O)[nH]2)n1-c1ccc(Cl)cc1
→ 3% | -11%
CCOC(=O)c1nc(Nc2ccc(C(=O)OC(C)C)cc2)c2ccccc2n1
→ -17% | -28%
CCCCN(C)C(=O)c1ccc(Nc2nc(C(N)Cc3ccccc3)cs2)nc1 (stereo not given)
→ -13% | -17%
Cn1c(N)c(S(=O)(=O)N2CCN(c3ccccc3F)CC2)c(=O)n(C)c1=O
→ -14% | -6%
Cc1cc(C(=O)CCC(=O)NNC(=O)c2ccccc2O)c(C)s1
→ -12% | -14%
Cc1cc(/C=C(\C#N)C(=O)Nc2ccccc2)c(C)n1-c1cccnc1
→ -5% | i
COc1ccc(S(=O)(=O)N2CCc3ccccc32)cc1C(=O)Nc1cccnc1
→ -9% | 27%

Full records as entered above:
Record of `COc1ccc(S(=O)(=O)N2CCc3ccccc32)cc1C(=O)Nc1cccnc1` = VACV Venus inh = -9%; VACV mCherry inh = 27%
Record of `CCCCN(C)C(=O)c1ccc(Nc2nc(C(N)Cc3ccccc3)cs2)nc1` (stereo not given) = VACV Venus inh = -13%; VACV mCherry inh = -17%

(continued)
Each structure is followed by: VACV Venus inh | VACV mCherry inh
COc1ccccc1C(=O)NC(CCSC)C(=O)NCc1ccccn1 (stereo not given)
→ -11% | i
C(=Nc1cccnc1)c1ccnc2ccccc12
→ -10% | -18%
Cc1ccc(Cn2cc(S(=O)(=O)c3cccc(Cl)c3)c(=O)c3cc(F)c(N4CCCCC4)cc32)cc1
→ -15% | -1%
CC(C)(CO)N1CCN(C(=S)Nc2ccccc2)CC1
→ -2% | i
CCOc1ccc(C(=O)Nc2ccc(-c3nc4cc(C(C)C)ccc4o3)cc2)cc1Cl
→ -8% | -14%
O=C(Nc1ccccc1)c1cccc(N2CCCS2(=O)=O)c1
→ 0% | -2%
CCC(=O)NC1OC(CO)C(O)C(O)C1O (stereo not given)
→ -6% | i
CN1CCN(c2nc3c(c(=O)[nH]c(=O)n3C)n2CCCSc2nnnn2-c2ccccc2)CC1
→ -24% | -29%
O=C(Nc1ccc2snnc2c1)N1CCOCC1
→ -2% | -4%
CC1(C)Cc2nc3sc4c(=O)n(CC(N)=O)cnc4c3cc2CO1
→ -1% | -13%
O=C(Nc1cccc(S(=O)(=O)N2CCCC2)c1)c1ccc2c(=O)n3c(nc2c1)CCCCC3
→ ? | ?
O=C(Nc1ccc(C(=O)N2CCCC(CO)C2)cc1)c1ccc(Br)o1 (stereo not given)
→ -11% | i
Cc1ccc(C2=Nc3ccc(Br)cc3C(c3ccncc3)=NN2)cc1
→ -7% | i
CS(=O)(=O)NCc1csc(-c2ccccc2)n1
→ -6% | -9%
CCn1nc(NS(=O)(=O)c2ccc(NC(C)=O)cc2)c2cc3ccccc3nc21
→ -6% | -3%

Reprinted at random: three records from the list
Each structure is followed by: VACV Venus inh | VACV mCherry inh
Cc1ccc(C2=Nc3ccc(Br)cc3C(c3ccncc3)=NN2)cc1
→ -7% | i
CC1(C)Cc2nc3sc4c(=O)n(CC(N)=O)cnc4c3cc2CO1
→ -1% | -13%
CCOc1ccc(C(=O)Nc2ccc(-c3nc4cc(C(C)C)ccc4o3)cc2)cc1Cl
→ -8% | -14%

The listing continues.
Each structure is followed by: VACV Venus inh | VACV mCherry inh
COc1cccc(NC(=O)CNC(=O)Cn2cnc3sc(C)c(C)c3c2=O)c1
→ -20% | -9%
COc1ccc(-c2coc3c(C(=O)NCc4ccc(F)c(F)c4)cccc23)c(C)c1
→ -12% | 15%
O=C(CNc1cccc(S(=O)(=O)N2CCCC2)c1)Nc1ccc(F)cc1F
→ -20% | -22%
O=C(NN=Cc1ccc(O)cc1)C(=O)NN=Cc1ccc(O)cc1
→ -1% | i
O=C(CCS(=O)(=O)c1ccccc1)N(Cc1cccnc1)c1nc2c(F)cccc2s1
→ -6% | -9%
COc1ccc(S(=O)(=O)N2CCCCCC2)cc1C(=O)N(C)Cc1cccc(OC)c1OC
→ -12% | -16%
CC(=O)N1CCc2cc(Br)cc(S(=O)(=O)CCC(=O)N3CCN(c4ccccn4)CC3)c21
→ -25% | i
CC(C)CN(C(=O)COC(=O)/C=C/c1ccc(Cl)c(Cl)c1)c1c(N)n(Cc2ccccc2)c(=O)[nH]c1=O
→ -7% | -12%
c1ccc(-c2nnc(CN3CCN(c4ccccc4)CC3)o2)cc1
→ -11%&-8% | -3%
CN1CC2([N+](=O)[O-])CC=C(OCCO)C([N+](=O)[O-])(C1)C2 (stereo not given)
→ -20% | -22%
Cc1ccc(C)c(Nc2cc(C(=O)NCc3cccnc3)c3ccccc3n2)c1
→ -9% | -5%
Cn1c(SCC(=O)NNC(=O)c2ccc(Cl)cc2)nnc1-c1cccnc1
→ 7% | i
COc1ccc2c(c1)[C@@H]1[C@H](CO2)[C@H](c2ccccc2)[C@]2(C)C(=O)Nc3ccc(C)cc3C(=O)N12
→ -22% | -19%
CCCN(CCC)Cc1cc(=O)oc2cc(C)ccc12
→ 1% | 11%
O=C(CCN1C(=O)c2ccccc2C1=O)N1CCOCC1
→ ? | i
Cc1cc(C(=O)N2CCN(C(c3ccccc3)c3ccccc3)CC2)on1
→ -21% | -14%
Cc1cccc(NC(=O)c2cc(S(=O)(=O)N3CCc4ccccc43)cn2C)c1C
→ -20% | 0%
COc1cc(OC)cc(C(=O)NCCc2csc3nc(-c4ccccc4F)nn23)c1
→ -7% | -1%
CCOc1ccc(OCC)c(NC(=O)CSc2nnc(Cn3cnc4ccccc43)n2C)c1
→ -5% | -19%
CCCn1nc(C(=O)N2CCN(c3ccccn3)CC2)c2ccccc2c1=O
→ -11% | -11%
CCOC(=O)COn1c(=O)c(=O)n(OC)c2ccccc21
→ -1% | -6%
O=C(NCc1ccc2c(c1)OCO2)C1CC(=O)N(c2ccc(Cl)cc2)C1 (stereo not given)
→ 4% | -11%
COc1cc(C(C#N)N2CCC(c3ccccc3)=N2)ccc1O (stereo not given)
→ -10% | -21%
CSCCC(NC(=O)c1ccc([N+](=O)[O-])cc1Cl)C(=O)OCC(=O)NC1CCCC(C)C1C (stereo not given)
→ 1% | -18%
O=C(NCc1ccco1)c1ccccc1-c1nc(-c2ccccc2)no1
→ -10% | i
Cn1c(=O)c2c(nc(N/N=C/c3cccs3)n2Cc2ccccc2)n(C)c1=O
→ 15% | -19%
N#Cc1nc(COc2ccc(Cl)cc2)oc1N1CCCCCC1
→ ? | -9%
COC(=O)COc1cc(Cl)c(Cl)cc1Cl
→ -9% | -9%

Sorted by molar mass (largest number first): some entries from above.
Each structure is followed by: VACV Venus inh | VACV mCherry inh
CSCCC(NC(=O)c1ccc([N+](=O)[O-])cc1Cl)C(=O)OCC(=O)NC1CCCC(C)C1C (stereo not given)
→ 1% | -18%
CCCn1nc(C(=O)N2CCN(c3ccccn3)CC2)c2ccccc2c1=O
→ -11% | -11%
O=C(NCc1ccc2c(c1)OCO2)C1CC(=O)N(c2ccc(Cl)cc2)C1 (stereo not given)
→ 4% | -11%
N#Cc1nc(COc2ccc(Cl)cc2)oc1N1CCCCCC1
→ ? | -9%
COc1cc(C(C#N)N2CCC(c3ccccc3)=N2)ccc1O (stereo not given)
→ -10% | -21%
CCOC(=O)COn1c(=O)c(=O)n(OC)c2ccccc21
→ -1% | -6%
COC(=O)COc1cc(Cl)c(Cl)cc1Cl
→ -9% | -9%
